KCNQ2 pot: enhances the rat KCNQ2 potassium channel; O88943; CHO-K1 KCNQ2, FluxOR thallium flux fluorescence; stronger effect = higher value; hit rate 0.54% among 310,000; B-score at 10 µM;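 active means fluorescence ratio B-score at least 3 SD of library B-scores, with initial fluorescence B-score within 3 SD, cut at about 5.3 in these data; same plate scores as AID 2156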;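 further: B-score of peak minus minimum over baseline fluorescence ratio after K+ and Tl+ stimulus; positive B-score means potentiation of KCNQ2 with more thallium influx and brighter signal; only the inactives scoring about 0 or higher are listed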
Target sequence (O88943 whole entry, looked up): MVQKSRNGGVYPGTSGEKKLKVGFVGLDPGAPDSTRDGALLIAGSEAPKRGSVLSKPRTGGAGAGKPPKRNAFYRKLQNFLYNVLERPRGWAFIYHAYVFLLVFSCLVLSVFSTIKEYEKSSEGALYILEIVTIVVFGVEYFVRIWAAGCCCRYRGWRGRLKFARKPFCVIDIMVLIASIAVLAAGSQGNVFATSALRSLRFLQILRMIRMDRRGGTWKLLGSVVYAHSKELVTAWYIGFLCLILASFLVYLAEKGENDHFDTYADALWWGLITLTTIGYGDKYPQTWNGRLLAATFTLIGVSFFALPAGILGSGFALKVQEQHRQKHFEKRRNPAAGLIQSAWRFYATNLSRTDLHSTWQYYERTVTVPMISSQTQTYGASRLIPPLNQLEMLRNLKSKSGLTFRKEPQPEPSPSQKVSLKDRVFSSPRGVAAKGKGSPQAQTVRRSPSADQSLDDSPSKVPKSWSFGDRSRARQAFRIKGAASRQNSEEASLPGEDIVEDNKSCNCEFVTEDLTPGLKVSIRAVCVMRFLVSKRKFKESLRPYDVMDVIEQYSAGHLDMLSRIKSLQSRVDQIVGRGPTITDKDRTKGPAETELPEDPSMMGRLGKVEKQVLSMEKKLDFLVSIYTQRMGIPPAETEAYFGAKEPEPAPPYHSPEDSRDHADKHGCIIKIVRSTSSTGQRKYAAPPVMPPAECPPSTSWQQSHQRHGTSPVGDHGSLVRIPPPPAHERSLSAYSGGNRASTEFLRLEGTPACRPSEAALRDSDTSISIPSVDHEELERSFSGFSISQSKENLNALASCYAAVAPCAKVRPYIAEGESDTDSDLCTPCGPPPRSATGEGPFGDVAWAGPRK
KCNQ2 pot baseline: further read-out of KCNQ2 pot, marked with its call; B-score; compound at 10 µM; measured here: initial fluorescence intensity artifact check;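 brightness before thallium and not channel activity; 0 = typical well and far values either way flag optical interference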
* marks the source's active call; other numbers are inactive results.

SMILES	KCNQ2 pot	KCNQ2 pot baseline
Cc1cccc(OCCn2c(CCCO)nc3ccccc32)c1	0.81	0.03
COc1cc(NC(=O)c2ccc(Br)cc2)c(OC)cc1NC(=O)c1ccccc1	0.56	0.21
CCC(C)c1ccccc1NC(=O)C(C)OC(=O)c1ccco1 (configuration not stated)	0.26	-0.94
O=C(c1ccc(Cl)cc1)C1CCCN(C(=O)c2csnn2)C1 (configuration not stated)	0.28	-0.1
N#CC1=C(N)Oc2cc(N)ccc2C1c1ccccc1F (configuration not stated)	0.09	0.02
CCCC[C@H]1COCCS(=O)(=O)N1Cc1ccc(F)cc1	0.1	1.3
CC(=O)Nc1nc2c(s1)CCc1ccccc1-2	1.3	0.46
COc1ccc(C(=O)CCC(C)(C)[N+](=O)[O-])cc1OC	0.09	-2.2
CCN1CCN(CCc2nc3cc(NC(=O)COc4ccc(Cl)cc4)ccc3n2C)CC1	0.04	0.47
O=C(CCCl)Nc1cc(SCCO)cc([N+](=O)[O-])c1	0.97	0.27
CCOCCCNC(=O)C1(O)c2cc(Br)ccc2NC(=O)N1c1ccc(OCC)cc1 (configuration not stated)	0.04	1.1
CCC1=NN(C(=O)c2ccc(Cl)cc2)C(O)(c2ccccc2)C1 (configuration not stated)	4.6	-0.23
CC(=O)OCC(OC(C)=O)C(OC(C)=O)C(OC(C)=O)C(=O)Nc1ccc(C)cc1 (configuration not stated)	0.59	-0.45
COc1cc(C(=O)N/N=C/C2CC=CCC2)cc(OC)c1OC (configuration not stated)	1.2	-2.9
Cc1cccc2sc(N(CCN3CCOCC3)C(=O)CCS(=O)(=O)c3ccccc3)nc12	0.51	0.66
COc1ccc(S(=O)(=O)Oc2ccc(C(=S)N3CCOCC3)cc2OC)cc1	0.02	-0.24
COc1ccccc1C(=O)NCC(=O)OCC(=O)c1ccc(Cl)s1	0.06	1
O=C(NC(Cc1ccccc1)C(=O)O)/C(=C\c1ccc(F)cc1)NC(=O)c1ccccc1 (configuration not stated)	0.06	-0.18
C=Cc1cccc(NC(=O)c2ccc(NC(=O)c3ccco3)cc2)c1	0.26	-0.53
Cn1ncc(Cl)c1C(=O)N1CCN(S(=O)(=O)c2ccc(F)cc2)CC1	0.92	-0.59
COCCNC(=O)C(=O)Nc1ccc(Br)cc1	0.64	0.74
COc1cccc(/C=C2\Oc3cc(OCC(=O)N4Cc5ccccc5C[C@H]4C(=O)O)ccc3C2=O)c1	2.5	-0.08
COc1ccc(/C=C2\N=C(SC)N(C)C2=O)cc1	0.59	1.5
CCCc1nc(N2CCN(C)CC2)c2sc(=S)n(-c3ccccc3)c2n1	0.87	0
COc1ccc(C(=O)NC(=S)N2CCC(C)CC2)cc1Br	6.5*	0.02*
COc1ccccc1NC(=O)c1ccccc1NC(=O)c1cc(Cl)ccc1NC(=O)c1ccco1	0.06	0.03
O=C(Cc1ccc2c(c1)OCCO2)N1CCN(S(=O)(=O)c2cccc(Cl)c2Cl)CC1	0.14	2.1
COc1ccccc1Nc1nc(NCCO)nc(N2CCCC2)n1	0.5	0.56
COc1cc(CC(=O)N(C)CC(=O)Nc2cc(C)ccc2C)cc(OC)c1OC	0.56	-0.53
NS(=O)(=O)c1ccc(CCNC(=O)c2ccc(OCC3CCCO3)cc2)cc1 (configuration not stated)	0.22	1.4

A different layout for some results above:
| SMILES | KCNQ2 pot | KCNQ2 pot baseline |
| --- | --- | --- |
| COCCNC(=O)C(=O)Nc1ccc(Br)cc1 | 0.64 | 0.74 |
| COc1cccc(/C=C2\Oc3cc(OCC(=O)N4Cc5ccccc5C[C@H]4C(=O)O)ccc3C2=O)c1 | 2.5 | -0.08 |
| COc1ccc(/C=C2\N=C(SC)N(C)C2=O)cc1 | 0.59 | 1.5 |
| CCCc1nc(N2CCN(C)CC2)c2sc(=S)n(-c3ccccc3)c2n1 | 0.87 | 0 |
| COc1ccc(C(=O)NC(=S)N2CCC(C)CC2)cc1Br | 6.5* | 0.02* |

(continued)
SMILES	KCNQ2 pot	KCNQ2 pot baseline
O=C(CCN1C(=O)c2ccccc2C1=O)Nc1ccc(-c2cn3ccsc3n2)cc1	0.85	-1.6
C=CCN(CC(=O)NC1CCCC1)C(=O)C(=O)Nc1ccc2c(c1)OCCO2	1.1	-0.72
O=C1CC2(CCCCC2)Oc2ccc(F)cc21	1.6	0
O=C(N/N=C/c1ccc(OC(=O)c2ccccc2)c([N+](=O)[O-])c1)c1ccc(O)cc1	0.38	6.3
Cc1ccc(-n2nc(-c3cccs3)cc2C(=O)NCC2CCCO2)c(C)c1 (configuration not stated)	0.02	-0.01
CCCCN(C(=O)Nc1ccc(Cl)cc1)C1CCN(C(C)=O)CC1	0.77	1.1
CCOC(=O)COc1ccc(S(=O)(=O)N2CCN(c3ccccc3)CC2)cc1	0.45	0
COc1ccc(/C=C\c2cc(OC)c(OC)cc2CC[N+](C)(C)C)cc1OC	1.1	0.82
ONC(=Nc1cccc(C(F)(F)F)c1)c1cccnc1	0.5	-1.6
CCNC(=O)CC1C(=O)N(c2ccc(F)cc2)C(=O)N1Cc1ccc(OC)cc1 (configuration not stated)	1.4	-0.12
CCOC(=O)N1CCN(S(=O)(=O)c2ccc(OC)c(C(=O)N3CCCCC3)c2)CC1	0.34	0.11
O=C(NCN1C(=O)C2C3C=CC(C3)C2C1=O)Nc1nncs1 (configuration not stated)	0.79	0.7
Cc1nn(C(C)C(=O)c2cccc(Cl)c2)c(C)c1[N+](=O)[O-] (configuration not stated)	0.97	-0.39
COc1ccc(CNc2n[nH]c(NCc3ccc(OC)c(OC)c3)n2)cc1OC	0.94	1.4
CC(C)(CO)Nc1nc(Cl)nc(NC2CCCCC2)n1	0.11	-0.8
CCC(=O)N(c1ccc(C(=O)O)cc1)c1nc(-c2ccc(OC)cc2)c(C)s1	0.06	-0.28
CCCCCCCCOC(=O)C[N+](C)(C)C/C=C(/C)Cl	0.28	-1.4
COCCNC(=O)c1ccc2c(c1)ncn2-c1ccc(F)c(F)c1	1.1	-0.7
O=C(Cn1cc2c(n1)CCCC2)NCc1cccnc1	1.1	0.16
CCOC(=O)N1CCN(c2nc(C)c3c(n2)CC(C)CC3=O)CC1 (configuration not stated)	0.46	2.4
Cc1ccccc1-n1nnnc1SC1CCOC1=O (configuration not stated)	1.9	0
Cc1nc2c(-c3ccccc3)c(C)nn2c(SCC(N)=O)c1Cc1ccccc1	0.46	0.4
COc1ccc([N+](=O)[O-])cc1NC(=O)c1ccccc1SC	0.19	0.13
COc1cc(OC)cc(C(=O)N2CCN(S(C)(=O)=O)CC2)c1	0.01	-1.7
COc1ccc(S(=O)(=O)Cc2ccc(C(=O)NCc3ccc(C)cc3)o2)cc1	0.15	-0.18
CC(=O)C(=Cc1cn(-c2ccccc2)nc1-c1ccccc1)C(C)=O	0.84	-1
O=C(CN1C(=O)NC2(CCCC2)C1=O)N1CCN(S(=O)(=O)c2ccc(Cl)cc2)CC1	0.05	0.88
CC1C2Cn3c(nc4ccccc43)C1N(C(C)C)O2 (configuration not stated)	0.8	-0.12
CCOC(=O)N1CCC(NC(=O)CSCc2nc(-c3ccc(C)cc3)oc2C)CC1	0.67	2.7
O=C(CN1CCN(Cc2ccccc2)CC1)N/N=C/C=C/c1ccco1	1	-0.04
COc1ccc(NC(=O)Cn2c3ccccc3c3nc4n(c(=O)c32)CCS4)cc1	1.4	-0.9
CC(NC(=O)CCNS(=O)(=O)c1ccccc1)c1ccccc1 (configuration not stated)	0.93	0.62
CCc1ccc(S(=O)(=O)NCCc2cn3ccccc3n2)s1	0.5	1
CC(C)(Oc1ccc(-c2ccco2)cc1)C(=O)O	0.05	0.61
COCCNC(=O)CN1c2ccccc2CC1C (configuration not stated)	0.96	-0.69
Cc1cc(OC(C)C(=O)N/N=C/CC(C)c2ccccc2)ccc1Cl (configuration not stated)	4.2	-0.18
CC(C)(C)C(C(=O)O)N1CCS(=O)(=O)CC1 (configuration not stated)	0.18	1.2
Nc1ccccc1C(=O)N1CCC(O)(c2ccc(Cl)cc2)CC1	0.32	0.71
O=C(Oc1c(-c2ccccc2)c(=O)n2c3c(cccc13)CC2)c1ccc(Cl)cc1	0.12	3.6
Cc1cc2nc(C)n(CCCNC(=O)Nc3cccc4ccccc34)c2cc1C	1.6	-2.5

Some of these compounds in order of SMILES length, highest first.
SMILES	KCNQ2 pot	KCNQ2 pot baseline
O=C(Oc1c(-c2ccccc2)c(=O)n2c3c(cccc13)CC2)c1ccc(Cl)cc1	0.12	3.6
CC(C)(C)C(C(=O)O)N1CCS(=O)(=O)CC1 (configuration not stated)	0.18	1.2
CC(C)(Oc1ccc(-c2ccco2)cc1)C(=O)O	0.05	0.61

Next structures.
SMILES	KCNQ2 pot	KCNQ2 pot baseline
COc1cc(CNn2nnnc2N)ccc1OCC(=O)NC(C)(C)C	0.68	1.2
CC(=O)N1c2c(cc(Br)cc2S(=O)(=O)N2CCN(C(=O)c3ccco3)CC2)CC1C (configuration not stated)	0.22	-1.1
Cc1nc(NC(=O)C2CCCC2)sc1Cc1ccc2c(c1)OCO2	0.1	-3
O=C(Nc1cccc(NC(=O)c2ccccc2Cl)c1)c1ccco1	0.54	0.7
CCOc1ccc2c(c1)c(N=Nc1cccc(C(=O)O)c1)c(O)n2C	0.21	-0.65
O=C(NC(C(=O)O)c1ccccc1)c1ccc(S(=O)(=O)N2CCOCC2)cc1 (configuration not stated)	3	-0.24
CCc1nnc(NC(=O)CSc2nnc(-c3cc4ccccc4cc3O)n2CCOC)s1	0.07	0.02
COc1ccc(NC2=Nc3ccccc3N3C2=Nc2c(c(C)nn2-c2ccc(C)cc2)C3c2cccnc2)cc1 (configuration not stated)	0.69	0.91
O=C(NC1CCCCC1)c1ccc(N2CCCC2=O)cc1	1.3	-2.3
CN=C1S/C(=C\c2ccc(SC)cc2)C(=O)N1C	0.43	0.34

Single records, as listed above. Order of screens: KCNQ2 pot | KCNQ2 pot baseline
COc1ccc(NC2=Nc3ccccc3N3C2=Nc2c(c(C)nn2-c2ccc(C)cc2)C3c2cccnc2)cc1 (configuration not stated) in the list: 0.69 | 0.91
CCOc1ccc2c(c1)c(N=Nc1cccc(C(=O)O)c1)c(O)n2C in the list: 0.21 | -0.65
O=C(NC1CCCCC1)c1ccc(N2CCCC2=O)cc1 in the list: 1.3 | -2.3

The listing continues:
SMILES	KCNQ2 pot	KCNQ2 pot baseline
Cc1ccc(NC(=O)CN2CCc3cc4c(cc3C2)OCCCO4)cc1	0.01	0.12
S=c1[nH]nc(-c2ccncc2)n1/N=C/C(Cl)=C\c1ccccc1	0.78	0.05
COc1ccc(OC)c2[nH]c(=O)c(CCNC(=O)c3cc4ccccc4o3)cc12	0.16	0.37
CCOC(=O)C1CCN(C(=O)c2c(C)oc3c2C(=O)c2ccccc2C3=O)CC1	1.2	-0.7
CCOC(=O)C1CCCN(S(=O)(=O)c2cccs2)C1 (configuration not stated)	0.77	0.2
Cc1cccc(N(C(=O)CNC(=O)c2cccs2)C(C(=O)NC2CCCC2)c2cccnc2)c1 (configuration not stated)	1.1	-0.06
COCCNC(=O)CN(Cc1ccccc1)C(=O)CCC(=O)Nc1nccs1	0.66	0.03
Cc1ccc(S(=O)(=O)Nc2nc(C)c(C(=O)NNS(=O)(=O)c3ccccc3)s2)cc1	0.24	-1
O=C(CCCc1ccccc1)NC1CCSC1=O (configuration not stated)	0.03	-0.19
O=C(Nc1ccccc1)Nc1cccc(-c2nnco2)c1	1.6	1.4
Cc1cnc(C(=O)OCC(=O)NC2CCCC(C)C2C)cn1 (configuration not stated)	0.05	-0.1
O=c1[nH]c(NCCO)nc2c1C1(CCCC1)Cc1ccccc1-2	0.67	0.48
CCc1cccc(CC)c1NC(=O)CSc1nnc(C2CC2)n1C	0.08	1.6
Cc1cc(=O)oc2cc(OC(C)C(=O)N3CCOCC3)ccc12 (configuration not stated)	0.16	-0.82
Cc1cc(NNC(=O)Nc2cccc(Cl)c2)nc2c1c(C)nn2C	2.8	-0.39
COc1ccccc1OCC(=O)Nc1ccc(C(N)=O)cc1	0.61	-0.02
N#CCCN1CCN(S(=O)(=O)c2ccc(C#N)cc2)CC1	2.3	-1.5
CC(=O)N1CCC(N(CCN2CCOCC2)C(=S)Nc2ccc(C)cc2C)CC1	0.24	0.24
COc1cccc(NC(=O)C/C(C)=N/NC(=O)c2ccccc2Cl)c1	0.05	-0.23
COc1cc(OC)cc(C(=O)Nc2ccccc2C(=O)N2CCCC2)c1	0.56	0.49
C=CCn1c(=O)c2ccccc2n2c(SCC(=O)NCC)nnc12	1.2	0.02
O=C(/C=C/c1ccc(OCCCF)cc1)NCc1cccc(Cl)c1	1.9	0.37
O=C(CN1CCN(C(=O)C2CCCO2)CC1)Nc1cc(Cl)ccc1Cl (configuration not stated)	0.88	1.7
COc1ccc(OCC(O)Cn2ccnc2C)cc1 (configuration not stated)	1.9	0.65
CSc1nnc(-c2ccc(S(=O)(=O)N3CCCC3)cc2)n1C	0.78	0.21
N/C(=N\S(=O)(=O)c1ccccc1)c1ccc([N+](=O)[O-])cc1	1.6	-1.4
C/C(=C\c1ccccc1)CN1CCN(C(C)C)C(CCO)C1 (configuration not stated)	1	-1.4
O=C(Nc1ccccc1NS(=O)(=O)c1ccc(F)cc1)C1CCCC1	1.1	0.03
O=C(CSc1nnc(CNC(=O)c2ccco2)o1)Nc1ccccc1C(F)(F)F	0.99	-0.16
CCOCCn1ccc2c(OCC(=O)Nc3cc(OC)ccc3OC)cccc2c1=O	1.2	-1.2
N#Cc1nc(Cc2cccc3ccccc23)oc1N1CCC(C(N)=O)CC1	0.37	0.13
O=C(Cc1n[nH]c(=O)c2ccccc12)NCc1ccc(Cl)cc1	1.2	-0.17

Source: PubChem

The list is partial, so the mix of outcomes need not match the whole.
